RGS16-Gao HTS: regulators of human RGS16-Galphao interaction. O15492+P09471. bead-based flow cytometry RGS16-Galphao binding, fluorescence; actives lie on both sides. binding response (% of control), % at 10 µM. 220,000 compounds, 0.38% hits. AID 1441;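 active = below 25% or above 175%, edge rows of some plates excepted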;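 note: Galphao activated by GDP with aluminum fluoride before binding; 100% = wells without compound and 0% = beads without RGS; some results beyond the cut were filed as inactive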
Target sequence (O15492 whole entry, looked up): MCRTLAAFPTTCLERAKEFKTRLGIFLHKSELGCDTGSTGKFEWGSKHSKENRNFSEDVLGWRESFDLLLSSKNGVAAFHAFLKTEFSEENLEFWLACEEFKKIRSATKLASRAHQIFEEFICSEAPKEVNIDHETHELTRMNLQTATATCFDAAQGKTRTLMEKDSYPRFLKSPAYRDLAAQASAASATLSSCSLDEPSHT
Target sequence (P09471 whole entry, looked up): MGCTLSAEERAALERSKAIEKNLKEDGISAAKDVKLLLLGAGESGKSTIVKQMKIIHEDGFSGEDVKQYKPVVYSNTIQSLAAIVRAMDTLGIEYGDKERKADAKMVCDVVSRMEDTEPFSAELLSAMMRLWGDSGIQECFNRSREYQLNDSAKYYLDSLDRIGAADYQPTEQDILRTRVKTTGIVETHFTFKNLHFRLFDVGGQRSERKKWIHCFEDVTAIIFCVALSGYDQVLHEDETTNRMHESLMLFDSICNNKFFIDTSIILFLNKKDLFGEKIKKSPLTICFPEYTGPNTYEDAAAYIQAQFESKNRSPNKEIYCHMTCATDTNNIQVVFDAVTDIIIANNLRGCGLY
PKD1 kinase inh: inhibitors of human PKD1 kinase; PKD1 kinase fluorescence polarization assay; inhibition, %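 (about 10 µM by stock and volumes)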; AID 797; 200,000 compounds, 0.056% hits; Q15139;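 active = inhibition of 50% or more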;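 note: controls were vehicle for no effect and a reference inhibitor for full effect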
INS promoter inh: TRM-6 insulin promoter activity inhibition | TRM-6 cells (human fetal islet line), insulin promoter-eGFP reporter, imaging; reporter expression induced with tamoxifen | inhibition, % at 2 µM | 130,000 compounds, 0.9% hits | AID 1273;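 active = inhibition above the mean plus 3 SD, with well images judged a real hit on visual review, cut at about 60% in these data, passing the limit was not always enough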
HSV replic up: increases HSV replication in cells; AID 1956; 220,000 compounds, 0.005% hits; HSV replication augmentation in cells, fold increase; maximum fold increase;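 active = peak rise of 1.5-fold or more in the series; tested in PC3 cells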;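 note: first round at 10 µM; read as green reporter fluorescence; hits show the peak of a series up to 25 µM; 1 = signal of infected wells without compound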
GALR2 ag: GALR2 (human) receptor agonism | O43603 | GALR2-expressing cells, agonist activation read-out | activation, %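 (tested at 5 µM)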 | 140,000 compounds, 0.48% hits;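 active = above mean plus 3 SD of all compounds, about 5% in these data, not always enough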;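 note: 0% = vehicle buffer wells and 100% = reference agonist at full effect; tested in CHO reporter cells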
Target sequence (O43603 whole entry, looked up): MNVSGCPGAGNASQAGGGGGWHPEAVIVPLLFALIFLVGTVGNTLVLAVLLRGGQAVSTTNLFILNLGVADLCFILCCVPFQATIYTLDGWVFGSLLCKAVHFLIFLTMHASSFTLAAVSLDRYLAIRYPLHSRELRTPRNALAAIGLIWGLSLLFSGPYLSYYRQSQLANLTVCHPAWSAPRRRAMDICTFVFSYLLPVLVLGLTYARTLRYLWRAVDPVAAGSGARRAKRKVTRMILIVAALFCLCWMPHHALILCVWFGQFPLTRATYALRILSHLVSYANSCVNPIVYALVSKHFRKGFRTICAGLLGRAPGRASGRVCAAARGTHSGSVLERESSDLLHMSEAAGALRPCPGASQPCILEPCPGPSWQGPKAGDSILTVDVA
INS promoter inh cell count: also measured in INS promoter inh; calls as there; normalized cell count, %; measured here: cell count, toxicity; reference of the scale not given here;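 cells exposed to compound for 48 h; stained nuclei by imaging scaled within each plate; lower means fewer cells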
HSV replic up primary fold: second read-out of HSV replic up, no call of its own (marks repeat the call); fold increase; compound at 10 µM; measured here: primary screen fold increase 10 uM; tested in PC3 cells;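 GFP signal in the first replicate; 1 = infected wells without compound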
Numbers without * were called inactive; i = inactive; / = no result given; [ ] = another dose, or the depositor's remark.

Second line of a record – PKD1 kinase inh	RGS16-Gao HTS	GALR2 ag	INS promoter inh cell count	HSV replic up primary fold	HSV replic up	INS promoter inh
O=[N+]([O-])c1cccc(/C(=N/N=C/c2ccccc2Br)C23CN4CN(CN(C4)C2)C3)c1
→ -3	98	-1.9	80	0.99	i	-30
CC(C)CNS(=O)(=O)c1cc(C(=O)N2CCOCC2)c(Cl)cc1Cl
→ -8	100	0.3	72	0.77	i	4
O=C(O)c1cccc(N2C(=O)Nc3ccccc3N2O)c1
→ 8	106	-0.7	205	0.98	i	-7
Cc1cc(-c2nnco2)c(C)n1-c1ccc(F)cc1
→ -12	104	-0.6	113	0.99	i	9
C=CCN(CC=C)C(=S)Nc1ccc2nsnc2c1
→ 1	108	/	65	1.1	i	-20
CC(=O)Nc1ccc(NC(=O)CN2CCN(c3cccc(C(F)(F)F)c3)CC2)cc1
→ 7	163	-0.2	74	0.86	i	-16
O=C(NCCCN1CCCC1=O)c1ccc(Cl)c(Cl)c1
→ 0	110	/	118	0.82	i	-15
O=C(CSc1nnc2ccccn12)NC(=O)NC1CCCC1
→ 6	104	-3.1	/	0.87	i	/
COc1ccc(S(=O)(=O)N2CCOCC2)cc1NC(=O)Cn1nnc2ccccc2c1=O
→ -3	103	/	/	0.97	i	/
CS(=O)(=O)c1ccc(C(=O)OCc2nnc(-c3ccc(Cl)cc3)o2)cc1[N+](=O)[O-]
→ -7	97	/	77	0.94	i	46

Second line of a record – PKD1 kinase inh	RGS16-Gao HTS	GALR2 ag	INS promoter inh cell count	HSV replic up primary fold	HSV replic up	INS promoter inh
CCn1cc(C(=O)NC2CCCCCC2)c2cc(OC)c(OC)cc2c1=O
→ -11	104	0.2	/	0.89	i	/
C/C(=N\O)c1ccc2c(c1)CC(C)O2 (stereo not given)
→ /	98	/	/	0.96	i	/
CC12C(=O)N(c3ccc(OC(=O)c4ccco4)cc3)C(=O)C1C1c3ccccc3C2c2ccccc21 (stereo not given)
→ -9	95	-1.4	42	1.1	i	30
CCCC1S/C(=N/N=C/c2ccc(C)cc2)N(Cc2ccc(OC)cc2)C1=O (stereo not given)
→ -2	107	-1.5	89	0.83	i	18
COc1ccccc1-c1ccc(SCc2ccc(F)cc2)nn1
→ 8	112	/	118	1	i	27
CCC(C)NC(=O)C1CCN(S(=O)(=O)N2CCOCC2)CC1 (stereo not given)
→ 2	97	/	/	0.99	i	/
Oc1ccccc1C1Nc2cccc3cccc(c23)N1
→ 4	91	-0.9	92	1.1	i	33
O=C(CNC(=O)c1ccccc1)NCc1ccc(Cl)cc1
→ 10	103	/	99	1.1	i	53
Cc1ccc(N(CC(=O)N2CCN(C3CCCCC3)CC2)S(=O)(=O)c2cccnc2)cc1
→ -8	260*[activator]	-1.8	124	1	i	-50
Cc1nc(N)nc(C)c1Cc1ccccc1
→ -10	112	-0.1	/	1	i	/

Second line of a record – PKD1 kinase inh	RGS16-Gao HTS	GALR2 ag	INS promoter inh cell count	HSV replic up primary fold	HSV replic up	INS promoter inh
CCN(CC)C(=O)C1CCCN(Cc2ccccc2F)C1 (stereo not given)
→ 4	104	-1.9	132	0.85	i	19
CN(C)CCNc1nc2sc3c(c2c(=O)n1-c1ccc(F)cc1)CCCCC3
→ /	98	/	/	0.82	i	/
OCCC1CN(Cc2cnc(-c3ccccc3)s2)CCN1Cc1ccccc1 (stereo not given)
→ 7	101	/	/	0.95	i	/
CC1CCCN(c2nc3ccccc3nc2C(C#N)C(=O)OC2CCCCC2)C1 (stereo not given)
→ -1	101	-0.4	223	0.95	i	-23
Cc1cc(C)n2nc(SCc3nnc(SCc4ccccc4)s3)nc2n1
→ -7	104	-1.1	/	1.1	i	/
CCC(C)NC(=O)CSC1=Nc2ccccc2C2=NC(c3ccccc3)C(=O)N12 (stereo not given)
→ -4	104	0.4	85	1	i	0
O=C(Nc1ccc2c(c1)C(=O)N(CC1CCCO1)C2=O)c1ccc(Cl)c(Cl)c1 (stereo not given)
→ -5	111	-0.9	112	/	/	18
Cc1nc2c(ncn2-c2ccccc2)c(=O)n1NC(=O)CN1CCCCC1
→ /	101	/	/	1.1	i	/
CN(C)c1ccc(-c2nnn(CC(=O)N3c4ccccc4CCc4ccccc43)n2)cc1
→ -14	99	-0.5	73	0.9	i	30
CC(NC(=O)COc1ccc(-c2nnco2)cc1)c1ccc(Cl)cc1Cl (stereo not given)
→ 5	101	0.4	/	0.96	i	/

Second line of a record – PKD1 kinase inh	RGS16-Gao HTS	GALR2 ag	INS promoter inh cell count	HSV replic up primary fold	HSV replic up	INS promoter inh
COc1ccc(-c2csc(NCc3ccco3)n2)cc1C
→ -9	96	-0.8	/	1.1	i	/
O=C(CN(C(=O)c1ccc(Cl)cc1)N1C(=O)C2CCCCC2C1=O)c1ccc(Cl)cc1 (stereo not given)
→ -10	100	-5.7	134	0.85	i	47
C/C(=N\NC(=O)Cn1c(-c2ccccn2)nc2ccccc21)c1cccc(O)c1
→ 2	112	/	116	0.86	i	43
Cc1ccc(-n2nc3c(N4CCN(c5ccccc5)CC4)nnc(C)c3c2C)cc1
→ -16	/	-0.9	/	/	/	/
N=c1sccn1CC(=O)NCCc1ccc(Cl)cc1Cl
→ -9	101	-2.5	189	0.92	i	-25
CCCCNC(=S)N/N=C/c1cc(C)ccc1C
→ 4	94	-0.8	58	0.86	i	-20
Nc1nc(CSc2nnnn2-c2ccc(Cl)cc2)nc(N2CCOCC2)n1
→ -11	112	-0.7	184	0.98	i	21
COc1cc(N/N=C(\C)c2ccc(N)cc2)nc(-c2ccccc2)n1
→ -1	97	/	105	0.94	i	50
CCOc1cc2[nH]c(=S)n(CCN3CCC(C)CC3)c(=O)c2cc1OCC
→ 11	101	-0.3	87	0.95	i	-30
Cc1ccc(-c2csc(N/N=C/c3ccco3)n2)cc1
→ -4	97	0.2	92	0.81	i	-12

Second line of a record – PKD1 kinase inh	RGS16-Gao HTS	GALR2 ag	INS promoter inh cell count	HSV replic up primary fold	HSV replic up	INS promoter inh
COC(=O)CCCC1=CC2=C(c3ccccc3)C(=O)C(C)(OC(=O)C3CCCC3)C(=O)C2=CN1CC(C)C (stereo not given)
→ /	98	/	/	1.1	i	/
O=C(Nc1ccccc1)N(Cc1ccc(Cl)cc1)CC(O)C(F)(F)F (stereo not given)
→ 6	143	3.9	106	1	i	-24
CCOc1ccc(NC(=O)CSc2nnc(-c3ccccn3)n2C)cc1
→ -13	106	0.1	48	1.3	i	-26
COC(=O)c1ccc(N/N=C/c2cc([N+](=O)[O-])cc(OC)c2O)cc1
→ -5	105	/	/	0.9	i	/
COc1ccc(CC(=O)NNS(=O)(=O)c2ccc(F)cc2)cc1OC
→ -2	103	/	73	1.2	i	36
C/C(=N\NC(=O)CNc1ccc(F)cc1)c1cc2ccccc2o1
→ 4	110	/	/	0.78	i	/
CC1(C)NC(=O)N(CC(O)COc2cc3ccccc3cc2C(=O)N2CCCCC2)C1=O (stereo not given)
→ 7	124	-2.0	/	0.95	i	/
COc1ccc(Cc2nnc(NC(=O)c3ccco3)s2)cc1
→ 4	104	-0.4	88	0.97	i	28
O=C(CN1C(=O)C2CC=CCC2C1=O)N1CCN(c2ccc([N+](=O)[O-])cc2)CC1 (stereo not given)
→ /	99	/	/	1	i	/
COc1cccc(Cn2cnc3c(NS(=O)(=O)c4ccc(Cl)cc4Cl)c(C)c(C)cc32)c1
→ -13	99	-1.2	95	0.98	i	4

Second line of a record – PKD1 kinase inh	RGS16-Gao HTS	GALR2 ag	INS promoter inh cell count	HSV replic up primary fold	HSV replic up	INS promoter inh
CCOC(=O)c1ccccc1NC(=O)CSc1nnc(COc2ccccc2C)n1C
→ -11	99	-0.3	121	0.98	i	-22
Cc1ccc(C)c(OCC(=O)Nc2ccc3c(c2)OCO3)c1
→ -1	104	0.0	/	/	/	/
COc1ccc(N2CCN(C(c3cccs3)C(C)NS(=O)(=O)c3ccccc3)CC2)cc1 (stereo not given)
→ -7	100	-2.2	/	/	/	/
N#Cc1nc(COc2ccc(F)cc2)oc1N1CCCCC1
→ 4	100	/	113	0.99	i	-5
O=C1Nc2cc(Cl)c(Cl)cc2N(O)N1c1cc(Cl)cc(Cl)c1
→ -9	101	-1.5	43	0.88	i	42
O=C(COc1ccc(-n2cnnn2)cc1)NC(=O)NCc1ccccc1
→ -4	84	-1.1	128	0.99	i	-3
O=c1c(C=Nc2ccc(Cl)cc2)c[nH]n1-c1cccc(Cl)n1
→ -1	98	-1.7	75	0.83	i	10
O=C(OCC(=O)N1CCCC1)c1c2c(nc3ccccc13)CCCCC2
→ -5	115	/	50	1	i	-83
S=c1[nH]nc(Nc2ccc(Cl)cc2)s1
→ /	87	/	/	1.2	i	/
Cc1sc2ncnc(OCC(=O)N3CCN(C(=O)c4ccco4)CC3)c2c1C
→ -4	114	/	85	0.98	i	33

Second line of a record – PKD1 kinase inh	RGS16-Gao HTS	GALR2 ag	INS promoter inh cell count	HSV replic up primary fold	HSV replic up	INS promoter inh
COCc1cc(=O)n2[nH]c(-c3ccc(C)cc3)cc2n1
→ 1	100	-0.7	100	0.79	i	-20
COc1ccc(/C=C/c2nc(N)nc(-c3ccccc3O)n2)cc1
→ -1	99	-0.6	138	0.96	i	-111
O=C(Cn1cc(C(F)(F)F)ccc1=O)N/N=C/c1cccc(Cl)c1
→ -1	107	-2.1	98	0.97	i	6
CCn1nnc(NC(=O)c2ccc(-c3ccccc3[N+](=O)[O-])o2)n1
→ -9	104	/	/	1	i	/
O=C(CSc1cccc2cccc(Cl)c12)NCc1cccs1
→ -5	101	-0.4	116	1	i	-28
Cc1cnc(SCCc2ccncc2)nc1C
→ 0	94	-1.8	56	1.1	i	13
O=C(Nc1ccc(Cl)cc1)c1cnc(-c2ccccc2)nc1-c1ccccc1
→ -4	101	-1.4	/	0.75	i	/
COc1ccccc1-c1nc(C#N)c(N2CCCCCC2)o1
→ -3	126	1.0	140	0.77	i	28
Cc1cc(C(=O)NCc2ccco2)c2ccccc2n1
→ -4	95	/	/	0.95	i	/
O=C(Cc1nn[nH]n1)c1ccccc1O
→ -3	109	-1.0	112	0.97	i	23

Second line of a record – PKD1 kinase inh	RGS16-Gao HTS	GALR2 ag	INS promoter inh cell count	HSV replic up primary fold	HSV replic up	INS promoter inh
CCOc1cccc(C(=O)Nc2cccc(-c3nnc(-c4ccc(C)cc4)o3)c2)c1
→ -2	341	-2.7	166	0.78	i	-28
CC(C)CCNC(=O)CCc1nnc(COc2ccccc2)o1
→ -1	101	/	135	1.2	i	33
COc1ccc(/C=C/C(=O)Nc2ccc(N3CCOCC3)cc2)cc1
→ -2	96	-1.1	/	0.99	i	/
CCn1c(C)cc(/C=C2/SC(=O)N(C(C)C(=O)OC)C2=O)c1C (stereo not given)
→ /	107	/	/	1.1	i	/
CCOc1ccc(Nc2nc3ccccc3c(=O)s2)cc1
→ /	100	/	/	0.85	i	/
CN(Cc1nc(-c2ccccn2)no1)S(=O)(=O)c1ccccc1
→ 0	101	10	44	0.86	i	-5
Cn1ncc([N+](=O)[O-])c1C(=O)N1CCOCC1
→ -3	124	-3.7	/	0.85	i	/
CC(C)(C)S(=O)(=O)c1cnc(-c2cnccn2)nc1N
→ /	112	/	/	0.9	i	/
O=C(CSc1nnc(Cn2c(=O)sc3ccccc32)n1CCc1ccccc1)N1CCCC1
→ 6	89	-1.0	/	/	/	/
COc1ccc(N2CCN(C(=O)C3CCN(S(=O)(=O)c4ccccc4)CC3)CC2)cc1
→ -11	99	/	125	1.2	i	-6

Compound activity deposited in PubChem by several laboratories.
